Vaccinia mCherry = qHTS for Stage-Specific Inhibitors of Vaccinia Orthopoxvirus: mCherry Reporter Primary qHTS | Vaccinia virus mCherry reporter infection, fluorescence; about a quarter of the inactives have no number | Potency, µM (titrated, usually from 36.5 µM), inactives show at the top dose activity change, negative = inhibition, hits mostly inhibitors | hit rate 0.63% among 310,000 | AID 720579, 2013; active = well fitted inhibition curve with a large enough effect; inconclusive = small, poorly fitted or top-dose-only effect; inactive = no such curve, though single readings can be large or run the other way; tested in A549 cells; note: nearly all actives have a fitted effect of over 35% in size; inactives centre near -10
Vaccinia Venus = qHTS for Stage-Specific Inhibitors of Vaccinia Orthopoxvirus: Venus Reporter Primary qHTS | AID 720580, 2013 | Potency, µM (doses to about 36.5 µM), for inactives: top-dose activity change, negative = inhibition, usual class: inhibitors | hit rate 0.46% among 330,000 | Vaccinia virus Venus reporter expression, fluorescence; active means well fitted inhibition curve with a large enough effect; inconclusive means small, poorly fitted or top-dose-only effect; inactive means no such curve, though single readings can be large or run the other way; tested in A549 cells; note: nearly all actives have a fitted effect of over 30% in size; inactives centre near -10
* = called active by the depositor; i = inactive; ? = inconclusive; . = no result given; & = joins results of further samples; [ ] = remark or other dose. % is set by controls: 0 for no effect and ±100 for the full control effect; potency is the fitted concentration of half-maximal effect.

SMILES	Vaccinia mCherry	Vaccinia Venus
CCc1ccccc1N1CC(c2nc3ccccc3n2CCCCOc2ccccc2)CC1=O (configuration not stated)	-6%	7%
CCC(=O)N1CCc2cc(S(=O)(=O)CCC(=O)NCc3ccco3)ccc21	-9%	0%
Cc1ccc(SCC(=O)OCC(=O)N(C)CC(=O)Nc2ccccc2Cl)cc1C	-9%	-4%
COc1ccc(NC(=O)C2(N(CC(C)C)C(=O)Cn3nnnc3N)CCCCC2)cc1	-19%	-6%
Cc1nn(-c2ccccc2)c(C)c1C(=O)NNC(=O)C(F)(F)F	-5%	0%
CCC(=O)NS(=O)(=O)c1cccnc1Nc1ccccc1Cl	.	-28%
COC(=O)c1c(CCl)noc1C(=O)NCC1CCCO1 (configuration not stated)	?	?
COc1cnc(-c2cccc(C(F)(F)F)c2)[nH]c1=O	i	-10%
Cc1ccc(-c2csc(NC(=O)Cc3ccc(F)cc3)n2)o1	-11%	-13%
Cc1ccc(S(=O)(=O)Nc2ccccc2OC(C(=O)OC(C)(C)C)C(=O)OC(C)(C)C)cc1	?	-14%
CC(Sc1nnnn1C)C(=O)Nc1cc(S(=O)(=O)N2CCCCC2)ccc1Cl (configuration not stated)	i	-1%
OCC[C@H]1C[C@H](O)[C@@H](O)[C@@]2(CCc3ccccc3O2)O1	-12%	1%
Cc1cccc(C)c1NC(=O)CN1C(=O)NC(C)(CCc2ccccc2)C1=O (configuration not stated)	-13%	-26%
CCOc1ccc(-n2c(O)c(N=Nc3ccc([N+](=O)[O-])cc3)c(=O)[nH]c2=O)cc1	-29%	-6%
COc1cccc(C(NC(C)=O)c2nc(-c3ccc(C)c(C)c3)cs2)c1 (configuration not stated)	i	-5%
Nc1cc2c3c(cccc3c1)C(=O)N(CCN1CCCC1)C2=O	?	?
CC#CCN1c2ccccc2[C@]23C[C@@H](C(=O)OC)N(C(=O)NC4CCCCC4)C2=NC(C(=O)OC)=C(C(=O)OC)[C@H]13	i	-6%
CC1=CC(C)(C)N(C(=O)CSc2nnc(-c3ccc(C)cc3)o2)c2ccc(C)cc21	3%	-4%
CCOC(=O)c1ccc(-n2cncn2)nc1	-6%	-7%
CCOc1ccc(NC(=O)COC(=O)Cc2ccsc2)cc1	i	3%
CSc1ccccc1NC(=O)CN(C)C(C)C(=O)Nc1ccc(C#N)cc1 (configuration not stated)	7%	2%
Cc1c(CCNC(=O)c2ccc(C(C)(C)C)cc2)sc2nc(-c3ccc(F)cc3)nn12	-10%	-14%
Cc1sc2nc(CSCC(=O)Nc3ccccc3C#N)[nH]c(=O)c2c1C	i	?
Cc1cc(Cl)ccc1OCc1cn2cccnc2n1	-5%	-4%
C[C@H](O)[C@@H]1C(=O)N2CCc3ccc(N4CCN(C)CC4)cc3[C@@H]2C[C@@H]1N(C)C(=O)c1cccnc1	i	-3%

(listing goes on)
SMILES	Vaccinia mCherry	Vaccinia Venus
CCCc1cc(=O)[nH]c(SCC(=O)N2CCN(S(=O)(=O)c3ccc(C)cc3C)CC2)n1	-11%	-8%
Cc1c(NS(=O)(=O)c2ccccc2)ccc([N+](=O)[O-])c1Cl	?	?
CCCCc1cc(=O)oc2cc(C)cc(OCC(=O)N[C@@H](CSCc3ccccc3)C(=O)O)c12	0%	4%
Cc1cc(NCc2ccccn2)n2ncc(-c3ccccc3)c2n1	-28%	-25%
CCN1C(=O)CS/C1=C(\C#N)S(=O)(=O)c1ccccc1	.	95%[activator]
CC(NC(=O)c1ccc(Br)s1)c1ccncc1 (configuration not stated)	-6%	-12%
CCN(CC)c1ccc(N)cc1S(=O)(=O)Nc1ccccc1OC	-8%	-11%
Cc1ccc(-c2nnn(CC(=O)NC3CCCc4ccccc43)n2)cc1 (configuration not stated)	-9%	-8%
Cc1ccc(-c2nc3ccccc3[nH]2)cc1NC(=O)/C=C/c1ccco1	-25%	-24%
O=C(Nc1ccc2c(c1)OCO2)C1CCCN(S(=O)(=O)c2cccs2)C1 (configuration not stated)	.	-29%
COC(=O)c1ccccc1NS(=O)(=O)c1ccc2c3c(cccc13)C(=O)N2	?	?
CCc1noc(C)c1C(=O)OCC(=O)c1ccc(NC(C)=O)cc1F	-14%	-11%
CCSC1=C(C#N)C2(CCCC2)C(C#N)=C(N)N1	-8%	-15%
CC1CCN(C(=O)CSc2nnc(CN3CCOCC3)n2-c2ccccc2)CC1	i	-10%
CCNS(=O)(=O)c1ccc(NC(=O)c2ccc(Cn3cc(Br)cn3)o2)cc1	?	-27%
Cc1[nH]c(=O)[nH]c(=O)c1S(=O)(=O)N1CCN(c2ccccc2F)CC1	-15%	-10%
COC(=O)c1ccccc1NC(=O)c1ccc2c(c1)C(=O)N(Cc1ccco1)C2=O	.	-4%
c1cc(OCCCN2CCCCC2)ccc1CN1CCCCC1	-1%	-20%
CCO[C@@H]1OC(C(=O)N2CCN(C)CC2)=C[C@H](c2ccc(C(F)(F)F)cc2)[C@H]1CCCO	-8%	-11%
O=C(CCCC(=O)N(CC(=O)NC1CCCC1)c1cccc(F)c1)Nc1ccccn1	-11%	-4%
COC(=O)c1cnc(NCc2ccc(F)cc2)c2ccccc12	-10%[7.34 µM]	-12%[7.34 µM]
CCN(C[C@H]1N[C@@](CC)(C(=O)OC)[C@H]2C(=O)N(Cc3ccccc3)C(=O)[C@@H]12)S(=O)(=O)c1ccccc1	i	1%
COc1ccc(C(=O)OCC(=O)NC23CC4CC(CC(C4)C2)C3)c(O)c1	?	-27%
O=C(NC1CCCCC1)N1CCC(c2nc(-c3ccc(S(=O)(=O)N4CCCC4)cc3)no2)CC1	-12%	-1%
Cc1ccc2cc(CCNC(=O)C(C)(C)C)c(=O)[nH]c2c1	?	-16%

Compounds above that have an NH in an aromatic ring:
SMILES	Vaccinia mCherry	Vaccinia Venus
COc1cnc(-c2cccc(C(F)(F)F)c2)[nH]c1=O	i	-10%
CCOc1ccc(-n2c(O)c(N=Nc3ccc([N+](=O)[O-])cc3)c(=O)[nH]c2=O)cc1	-29%	-6%
Cc1sc2nc(CSCC(=O)Nc3ccccc3C#N)[nH]c(=O)c2c1C	i	?
CCCc1cc(=O)[nH]c(SCC(=O)N2CCN(S(=O)(=O)c3ccc(C)cc3C)CC2)n1	-11%	-8%
Cc1ccc(-c2nc3ccccc3[nH]2)cc1NC(=O)/C=C/c1ccco1	-25%	-24%
Cc1[nH]c(=O)[nH]c(=O)c1S(=O)(=O)N1CCN(c2ccccc2F)CC1	-15%	-10%
Cc1ccc2cc(CCNC(=O)C(C)(C)C)c(=O)[nH]c2c1	?	-16%

Carrying on:
SMILES	Vaccinia mCherry	Vaccinia Venus
Cc1cccc(C)c1NC(=O)CNC(=O)c1ccc2c(c1)NC(=O)CS2	-11%	-3%
Cc1ccc2c(c1)N(CCCC(=O)NCc1cccnc1)C(=O)CO2	17%	-1%
COc1ccc(CC(=O)Nc2sc3c(c2C(=O)Nc2ccc(C)cc2)CCCCC3)cc1	-9%[7.34 µM]	-7%[7.34 µM]
COC(=O)N1CCc2c(sc(NC(=O)C3=COCCO3)c2C#N)C1	-3%	?
O=C1NC[C@H](CCCCN2C[C@H](Cc3ccccc3)N(Cc3ccccc3)C(=O)C2=O)N(CCc2ccc(O)cc2)C1=O	-6%	-6%
CC(C)Cn1c(=O)c(C(=O)N/N=C/c2cccc(F)c2)c(O)c2ccccc21	-12%	-14%
COc1ccc(N2CCN(Cc3nc4ccccc4n3C)CC2)cc1	-11%	-10%
COC(=O)C1=C(c2ccc(S(C)(=O)=O)cc2)C[C@@H]2CC[C@H]1N2C(=O)N1CCOCC1	-12%	-6%
CC(/C=N/N1C(=O)CSC1=S)=C\c1ccccc1	-7%	-1%
Cn1c(CN2CCCC2)nc2cc(NC(=O)c3cccs3)ccc21	-11%	-12%
Cc1ccc(CC(=O)Nc2nc3ccccc3[nH]2)cc1C	-8%	-5%
Cn1cccc1C(=O)Nc1nccs1	i	-11%
CCOc1ccc(NC(=O)c2cnsn2)cc1	-5%	-2%
O=C(NCCOc1ccc(Cl)cc1)C1CC(=O)N(c2ccc(F)cc2)C1 (configuration not stated)	-7%	-11%
COc1cccc(/C=C2\SC(=N)N(c3ccc(F)cc3)C2=O)c1	-7%	4%
CC(=O)C1=C(C)Nc2cc(C(F)(F)F)ccc2S1	.	-8%
O=C(C=C=Nc1ccccc1)C(=O)N=C=Cc1ccccc1	-1%	7%
CCn1c2ccccc2c2cc(NC(=O)CNCc3ccccc3OC)ccc21	?	-26%
C[C@]12CC[C@H](O)CC1=CCC1C2CC[C@@]2(C)C1CC[C@@H]2OCc1ccccc1 (some centres not stated)	-16%	-3%
Cc1ccc(CNC(=O)c2cc(-c3ccccc3C)nn2CC2CC(c3cccnc3)=NO2)cc1 (configuration not stated)	i	-24%
c1ccc(CN2CCN(c3ncnc4nc[nH]c34)CC2)cc1	i	-7%
CS(=O)(=O)n1nc(OC(=O)c2cccs2)cc1N	0%	-10%
COc1cc(NS(=O)(=O)c2ccc3ccccc3c2)c2ncccc2c1	-7%	-20%
COC(=O)c1scc2c(Oc3ccccc3)cc(C(F)(F)F)nc12	i	-15%
O=C(CN(Cc1ccco1)C(=O)CNS(=O)(=O)c1ccccc1)NCc1ccc(F)cc1	.	1%

The listing continues.
SMILES	Vaccinia mCherry	Vaccinia Venus
COc1ccc(CSCC(=O)N/N=C/c2ccc(OCC(=O)N3CCCCC3)cc2)cc1	-3%	-19%
CCOc1ccc(N(C(=O)C2CCCO2)C2C=CS(=O)(=O)C2)cc1 (configuration not stated)	5%	2%
COc1ccc(N2CCN(C(=O)c3c(C)nn(-c4ccccc4)c3C)CC2)cc1	-11%	-18%
CN(CCc1ccccc1)C(=O)c1ccc(NC(=O)Cc2cccc(NC(=O)C3CCN(S(=O)(=O)c4cccc([N+](=O)[O-])c4)CC3)c2)cc1	-5%	-13%
O=S(=O)(c1ccc(F)cc1)N1CCN(C(=S)NC2CCCC2)CC1	-1%	-17%
CC(C)(C)C(=O)Nc1ccccc1C(=O)NCCC(=O)Nc1ccccc1	2%	-1%
Cc1ccc2c(nc3s/c(=C/c4cccs4)c(=O)n32)c1C	9%	13%
COc1ccc(CNC(=O)CC2C(=O)NCCN2C2Cc3ccccc3C2)cc1 (configuration not stated)	i	-12%
OCCn1c(-c2ccccc2)csc1=Nc1ccccc1	-18%	-22%
COc1ccc(NC(=O)Nc2ccc3oc(C)nc3c2)cc1	i	6%
O=C(Nc1c2c(nn1-c1ccccc1)CS(=O)(=O)C2)c1ccco1	i	-13%
Cc1ccc(C(=O)Nc2ccc3nc(C)sc3c2)s1	.	-12%
CCOC(=O)c1ccc(NC(=O)c2cn3c4c(ccc(Cl)c4c2=O)OC(C)C3)cc1 (configuration not stated)	-1%	-2%
Cc1cc(OC(=O)c2c(C)cc(O)cc2O)cc(O)c1C(=O)O	-4%	-4%&-10%
O=C(CC1NC2CCCCC2NC1=O)Nc1cccc(C(F)(F)F)c1 (configuration not stated)	-13%	-15%
CCCCC(C)Sc1nc2c([nH]1)c(=S)n(C)c(=O)n2C (configuration not stated)	?	-25%
Nc1cccc(Oc2ccc3c(c2)C(=O)NC3=O)c1	-3%	2%
COc1ccc(-c2ccc(NS(=O)(=O)c3ccc(C(C)=O)cc3)cc2)nn1	-14%	-16%
O=C1c2ccccc2C(=O)c2cc(NC(=O)C3CC3)ccc21	i	-4%
Cc1c(NC(=O)c2cc(-c3ccccc3)on2)c(=O)n(-c2ccccc2)n1C	-4%	-4%
CCCNC(=O)[C@@H]1CCCN1C(=O)[C@@H]1Cc2ccccc2CN1	2%	1%
Cc1ccc(Cc2c(-c3ccc(C)cc3)nc3c(C)cc(Br)cn23)cc1	7%	2%
Cc1ccc(C)c(NC(=O)COC(=O)CC2CC3CCC2C3)c1 (configuration not stated)	-18%	-12%
Cc1c(C#N)c2ccccc2n1CC(=O)NCc1ccccc1	.	-2%
O=C(CSc1nnc(-c2cccnc2)o1)Nc1nccs1	-15%	-5%

3 structures already listed, arranged by molar mass, rising.
SMILES	Vaccinia mCherry	Vaccinia Venus
Cc1ccc2c(nc3s/c(=C/c4cccs4)c(=O)n32)c1C	9%	13%
Cc1ccc(Cc2c(-c3ccc(C)cc3)nc3c(C)cc(Br)cn23)cc1	7%	2%
CN(CCc1ccccc1)C(=O)c1ccc(NC(=O)Cc2cccc(NC(=O)C3CCN(S(=O)(=O)c4cccc([N+](=O)[O-])c4)CC3)c2)cc1	-5%	-13%

Next part
SMILES	Vaccinia mCherry	Vaccinia Venus
CC1(C)Cc2c(cnn2-c2cccc(F)c2)C(NC(=O)Cn2cccn2)C1 (configuration not stated)	i	1%
COc1ccc(C2N(c3ccc(C)cc3)CCN2c2ccc(C)cc2)cc1O	-16%	-12%
O=C(OC(c1ccccc1)c1nccc2ccccc12)c1cc([N+](=O)[O-])cc([N+](=O)[O-])c1 (configuration not stated)	-9%	-17%
CCOC(=O)C1CCN(C(=O)c2oc3ccc(S(=O)(=O)N4CCCCCC4)cc3c2C)CC1	-7%	-9%
Cc1ccc2onc(CC(=O)N3CCN(c4ccc(Cl)cc4)CC3)c2c1	-10%	-7%
Cc1ccc(NC(=O)CN2C(=O)CSc3ccc(S(=O)(=O)N(C)C)cc32)c(C)c1	-18%	-7%
CCCCNC(=O)NNC(=O)c1ccc(F)cc1	-4%	-7%
CC1Cn2c(C(=O)NCCc3ccc(Cl)cc3)cc3cccc(c32)S1 (configuration not stated)	-27%	-16%
CCOC(=O)c1cccc(C2=CC(=O)C[C@H](c3ccc(OC)c(OC)c3)C2)c1	-13%	-20%
CC(=O)Nc1ccc(NC(=O)CSc2nnc(NC(=O)Cc3ccc(F)cc3)s2)cc1	i	-3%
CC(=O)N1CC2(C)CN(C(C)=O)CC(C)(C1)C2=O	-11%	4%
O=C(CCCN1C(=O)CSc2ncccc21)N1CCN(Cc2ccccc2)CC1	i	0%

High-throughput results from PubChem.
